RGS16-Gao: RGS16-Galphao interaction regulator (human) | bead-based flow cytometry RGS16-Galphao binding, fluorescence; actives lie on both sides | binding response (% of control), % at 10 µM | hit rate 0.38% among 220,000;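 active = below 25% or above 175%, edge rows of some plates excepted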;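 also: Galphao activated by GDP with aluminum fluoride before binding; 100% = wells without compound and 0% = beads without RGS; some results beyond the cut were filed as inactive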
Target sequence (O15492 whole entry, looked up): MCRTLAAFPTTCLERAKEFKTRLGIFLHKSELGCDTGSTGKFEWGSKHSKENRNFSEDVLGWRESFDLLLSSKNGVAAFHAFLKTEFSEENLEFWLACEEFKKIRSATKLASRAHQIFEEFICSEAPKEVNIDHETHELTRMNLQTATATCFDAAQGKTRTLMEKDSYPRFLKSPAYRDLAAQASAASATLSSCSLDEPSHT
Target sequence (P09471 whole entry, looked up): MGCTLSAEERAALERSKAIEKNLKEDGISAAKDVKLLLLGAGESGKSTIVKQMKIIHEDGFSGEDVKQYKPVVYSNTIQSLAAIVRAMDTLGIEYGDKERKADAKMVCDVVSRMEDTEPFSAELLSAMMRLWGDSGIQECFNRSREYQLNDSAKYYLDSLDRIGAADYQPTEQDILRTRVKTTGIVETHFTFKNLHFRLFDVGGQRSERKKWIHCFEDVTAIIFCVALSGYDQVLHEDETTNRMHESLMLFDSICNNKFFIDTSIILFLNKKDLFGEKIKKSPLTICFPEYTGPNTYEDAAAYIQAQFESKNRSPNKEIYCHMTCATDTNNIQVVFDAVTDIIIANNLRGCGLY
PKD1 kinase inh: inhibitors of human PKD1 kinase; inhibition, %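 (about 10 µM by stock and volumes)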; hit rate 0.056% among 200,000; Q15139; PKD1 kinase fluorescence polarization assay;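 active = inhibition of 50% or more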;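 also: controls were vehicle for no effect and a reference inhibitor for full effect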
HSV augment: increases HSV replication in cells; HSV replication augmentation in cells, fold increase; maximum fold increase; hit rate 0.005% among 220,000; AID 1956;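 active = peak rise of 1.5-fold or more in the series; tested in PC3 cells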;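 also: first round at 10 µM; read as green reporter fluorescence; hits show the peak of a series up to 25 µM; 1 = signal of infected wells without compound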
GALR2 agonist: agonists of human galanin receptor 2 (GALR2); O43603; GALR2-expressing cells, agonist activation read-out; activation, %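 (tested at 5 µM)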; hit rate 0.48% among 140,000;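 active = above mean plus 3 SD of all compounds, about 5% in these data, not always enough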;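 also: 0% = vehicle buffer wells and 100% = reference agonist at full effect; tested in CHO reporter cells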
Target sequence (O43603 whole entry, looked up): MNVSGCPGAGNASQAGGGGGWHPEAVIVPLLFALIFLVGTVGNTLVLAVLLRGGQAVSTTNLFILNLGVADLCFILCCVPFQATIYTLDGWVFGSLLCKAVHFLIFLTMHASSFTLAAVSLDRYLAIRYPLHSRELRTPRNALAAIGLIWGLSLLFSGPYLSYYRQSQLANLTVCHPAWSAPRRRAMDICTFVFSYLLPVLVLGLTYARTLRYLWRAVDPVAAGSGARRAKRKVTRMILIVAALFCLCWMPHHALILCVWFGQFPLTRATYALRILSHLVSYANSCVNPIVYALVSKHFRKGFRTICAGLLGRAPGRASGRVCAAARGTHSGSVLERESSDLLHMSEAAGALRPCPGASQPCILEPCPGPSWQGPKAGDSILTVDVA
INS promoter inh: TRM-6 insulin promoter activity inhibition | inhibition, % at 2 µM | TRM-6 cells (human fetal islet line), insulin promoter-eGFP reporter, imaging; reporter expression induced with tamoxifen | hit rate 0.9% among 130,000;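 active = inhibition above the mean plus 3 SD, with well images judged a real hit on visual review, cut at about 60% in these data, passing the limit was not always enough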
INS promoter inh cell count: second read-out of INS promoter inh, no call of its own (marks repeat the call); normalized cell count, %; measured here: cell count, toxicity; reference of the scale not given here;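 cells exposed to compound for 48 h; stained nuclei by imaging scaled within each plate; lower means fewer cells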
HSV augment primary fold: recorded beside HSV augment, whose call it bears; fold increase; compound at 10 µM; measured here: primary screen fold increase 10 uM; tested in PC3 cells;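 GFP signal in the first replicate; 1 = infected wells without compound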
* = called active by the depositor; i = inactive; . = no result given. Not a hit list; any-hit rate near 1.3%.

no.	Molecule	INS promoter inh cell count	GALR2 agonist	INS promoter inh	HSV augment primary fold	PKD1 kinase inh	RGS16-Gao	HSV augment
1	CCSc1nnc(NC(=O)C2C3CCC(C3)C2C(=O)O)s1 (configuration not stated)	103	.	-50	0.9	3	105	i
2	CCC(=O)/C=C1\Sc2ccc(OC)cc2N1CC	.	-1.2	.	0.86	46	97	i
3	Cc1ccc(C(=O)CSc2nnc3c4ccccc4nc(C(C)(C)C)n23)cc1	131	-0.8	-7	0.79	-15	101	i
4	O=C(CNCC1CCCCC1)Nc1cccc(S(=O)(=O)N2CCOCC2)c1	.	.	.	0.98	-4	102	i
5	COc1ccc(Oc2cccc(Cl)c2CNC(=O)CC(C)(C)CC(=O)O)cc1	.	.	.	1	.	106	i
6	Cc1cc2nc(CCN(C(=S)NCC3CCCO3)C3CCCC3)[nH]c2cc1C (configuration not stated)	.	.	.	0.86	-5	210	i
7	O=C1N(CCCN2C(=O)C3(OCCO3)c3ccccc32)c2ccccc2C12OCCO2	.	-0.9	.	0.96	-5	106	i
8	Cc1cc(C(=O)NNC(=S)Nc2ccccc2C)cs1	125	-0.2	-8	0.92	-10	108	i
9	COc1ccc(N(CC(=O)NC2CCCCC2)C(=O)CNC(=O)c2ccco2)cc1OC	138	-1.6	62	1	-7	47	i
10	COc1ccc(C(c2nnnn2C(C)(C)C)N2CCN(c3nc4ccccc4s3)CC2)cc1OC (configuration not stated)	112	-0.7	-6	0.91	-10	101	i
11	Cc1cccc(-n2c(C)cc(C=C(C#N)C#N)c2C)c1	108	0.7	-34	0.98	-5	106	i
12	O=C(c1ccccc1F)N1CCC(O)(c2cccnc2)CC1	.	-0.6	.	1.1	12	101	i
13	CCC(=O)OCCNc1cc(Sc2nc3ccccc3s2)c2nonc2c1[N+](=O)[O-]	120	3.5	-4	0.84	-1	45	i
14	Cc1cc2ccccc2nc1SCC(=O)NC1CCCC1	148	.	13	0.89	-5	102	i
15	Cc1ccc(CN2CCN(Cc3cn[nH]c3-c3ccccc3)CC2CCO)o1 (configuration not stated)	133	.	10	1.1	-2	106	i
16	CC(=O)c1coc2c1cc(O)c1ccccc12	135	-1.1	-51	0.93	-1	109	i
17	Cc1sc2ncnc(NC(C)C(=O)O)c2c1C (configuration not stated)	63	.	30	0.85	5	109	i
18	COC(=O)Nc1ccc(S(=O)(=O)N2CCCCC2C(=O)NCc2ccco2)cc1 (configuration not stated)	.	-0.9	.	0.93	-10	119	i
19	Nc1nc(Nc2cccc(F)c2)nc(NCCO)c1[N+](=O)[O-]	.	.	.	0.94	.	112	i
20	CC(=NC(C)C)C1=C(O)C(C)OC1=O (configuration not stated)	99	-0.5	17	0.99	-10	99	i
21	COc1cc(-n2c(N)c(C(=O)NCc3ccco3)c3nc4ccccc4nc32)cc(OC)c1OC	100	-0.1	-29	0.85	-3	62	i
22	CCN(CCCNS(=O)(=O)c1ccc2c(c1)CCN2C(C)=O)c1cccc(C)c1	.	-1.4	.	0.75	-12	103	i
23	CCCC(=O)n1nc(-c2ccc(Cl)cc2)nc1SC	113*	-1.9	75*	.	-4	99	.
24	COC(=O)c1ccccc1NC(=O)CSc1ccc(C)cc1	127	-2.7	53	1.1	-2	48	i
25	CCCc1[nH]n(-c2ccc(F)cc2)c(=O)c1C=NCC1CCCO1 (configuration not stated)	.	.	.	.	9	92	.
26	Cc1nnc(NC(=O)CSc2nnnn2Cc2ccccc2)s1	80	-2.2	-419	1	3	88	i
27	CCOC(=O)C1=C(CN2CCc3ccccc32)NC(=O)NC1c1ccc(Cl)cc1 (configuration not stated)	103	-0.9	13	0.99	-3	101	i
28	CN(C)c1nc(N2CCN(c3ccc(F)cc3)CC2)c(C#N)c(=O)o1	109	-2.9	42	.	-16	105	.
29	CCOC(=O)N1CCN(C(=O)CSc2nnc(CNC(=O)c3ccccc3F)o2)CC1	101	-4.2	-29	1.1	-1	97	i
30	CN(CCCNC(=O)COc1cc(=O)n(C)c2ccccc12)Cc1ccccc1	.	-0.5	.	0.81	8	101	i
31	Cc1csc(SC(C)C(=O)Nc2ccc3c(c2)OCCO3)n1 (configuration not stated)	98	.	-36	0.91	1	99	i
32	CN1/C(=C\C(=O)C[n+]2cccc(C(N)=O)c2)C(C)(C)c2ccccc21	41	.	-71	0.99	-1	112	i
33	O=C(Nc1cccc(F)c1)N1CC=C(n2c(=O)[nH]c3ccccc32)CC1	57	-0.8	26	0.78	-22	99	i
34	CC(C)CCN1CCN(Cc2nc3c(s2)CCCC3)CC1CCO (configuration not stated)	.	.	.	1.1	-5	30	i
35	COc1ccc(OC)c(CNC(=O)C2CCN(S(C)(=O)=O)CC2)c1	96	.	-145	0.99	-1	108	i
36	COc1ccc2nc(SCC(N)=O)cc(C)c2c1	.	-1.2	.	1	6	95	i
37	CCCNS(=O)(=O)c1ccc(-n2cnnn2)c(OC)c1	77	.	54	0.84	-3	109	i
38	COc1ccc(-n2c3c(cc(C(=O)NNc4ccccc4)c2=O)C(=O)CC(C)(C)C3)cc1	.	.	.	0.78	1	43	i
39	Cc1cc2c(=O)n(Cc3ccco3)c(SCC(=O)N3CCCc4ccccc43)nc2s1	97	1.3	5	0.72	-1	98	i
40	Cc1ccc(-c2ccc(C(=O)NCc3ccccc3)o2)c2ccccc12	77	-0.8	19	0.77	-11	97	i
41	CCCCC1CCC(C(=O)NC2CCS(=O)(=O)C2)CC1 (configuration not stated)	117	-0.5	-6	0.97	-10	100	i
42	COc1cccc(C2CC(c3cccc(NS(C)(=O)=O)c3)=NN2C(=O)c2ccccc2)c1OC (configuration not stated)	95	-0.3	-40	0.91	3	102	i
43	Cc1cc(=O)oc2cc(OCC(=O)NCc3ccncc3)ccc12	170	-0.9	-11	1	-3	95	i
44	COc1ccc(-c2cc(COc3ccccc3)on2)cc1	94	.	-33	0.91	-5	98	i
45	CC(C)OC(=O)CC(=O)CSc1nc2c(cc1C#N)CCC2	157	-0.4	40	0.86	8	91	i
46	Cc1cccc(C(=O)c2ccccc2C(=O)O)c1O	.	-2.0	.	0.95	9	102	i
47	O=C(O)CCCC(=O)Nc1ccc(C(=O)N2CCCCC2)c(Cl)c1	95	-1.2	-91	0.62	-4	95	i
48	Cc1ncsc1CCOC(=O)C1C2CC3CC(C2)CC1C3 (configuration not stated)	121	-0.6	-2	1	-8	22*	i
49	O=C(Cn1c(=O)oc2cc(S(=O)(=O)N3CCCCCC3)ccc21)NC1CCCCC1	.	.	.	1	-17	108	i
50	O=C(NC1CCN(S(=O)(=O)c2ccccc2)CC1)C1CCCCC1	32	-1.4	66	0.85	-4	106	i
51	COc1cc(NC(=S)N2CCC(C(N)=O)CC2)cc(OC)c1	129	-0.4	-78	0.88	-6	99	i
52	Cc1ccc2cc(C)c(SCC(=O)Nc3ccc(S(=O)(=O)N4CCCC4)cc3)nc2c1	.	.	.	0.86	.	97	i
53	C#CC1(NC(=O)NC(=O)c2c(F)cccc2F)CCCCC1	.	.	.	1.1	.	98	i
54	CC(C)(C)CC(=O)Nc1cc(S(=O)(=O)N2CCCCCC2)ccc1Cl	94	-1.4	0	.	5	107	.
55	Cc1n[nH]c(C)c1S(=O)(=O)N(CC(=O)NC1CCCC1)c1ccc(C(C)C)cc1	.	-3.3	.	0.96	4	100	i
56	CCc1nnc(NC(=O)CN2CCN(c3ccccc3OC)CC2)s1	.	-1.3	.	0.96	8	107	i
57	Cc1cc(C)n2nc(SCC(=O)c3cccs3)nc2n1	.	.	.	0.8	-1	97	i
58	COc1cccc(CN(C)CC(=O)NCc2ccccc2Cl)c1	.	0.4	.	1	-2	103	i
59	COC(=O)CN(c1cc([N+](=O)[O-])ccc1OC)S(C)(=O)=O	.	.	.	1	7	99	i
60	CSc1ccc(/C=C(\NC(=O)c2ccccc2)C(=O)NN)cc1	.	.	.	1.1	.	103	i

Structural class: the entries above containing a thiophene ring, fused or not (four)
no.	Molecule	INS promoter inh cell count	GALR2 agonist	INS promoter inh	HSV augment primary fold	PKD1 kinase inh	RGS16-Gao	HSV augment
8	Cc1cc(C(=O)NNC(=S)Nc2ccccc2C)cs1	125	-0.2	-8	0.92	-10	108	i
17	Cc1sc2ncnc(NC(C)C(=O)O)c2c1C (configuration not stated)	63	.	30	0.85	5	109	i
39	Cc1cc2c(=O)n(Cc3ccco3)c(SCC(=O)N3CCCc4ccccc43)nc2s1	97	1.3	5	0.72	-1	98	i
57	Cc1cc(C)n2nc(SCC(=O)c3cccs3)nc2n1	.	.	.	0.8	-1	97	i

(further entries)
no.	Molecule	INS promoter inh cell count	GALR2 agonist	INS promoter inh	HSV augment primary fold	PKD1 kinase inh	RGS16-Gao	HSV augment
61	S=c1[nH]nc(COc2cccc3ccccc23)n1Cc1ccccc1	.	.	.	1	.	95	i
62	COc1ccc(-n2cnc3cc(NS(=O)(=O)c4ccc(C)cc4)ccc32)cc1	134	-0.8	21	0.81	-13	119	i
63	CCn1c(SCc2cccc(F)c2)nc2c(c1=O)SCC2	.	.	.	0.88	9	96	i
64	CCOc1ccc(NC(=O)CC2NCCNC2=O)cc1 (configuration not stated)	142	-1.6	5	0.95	-9	185	i
65	Cc1cc(/C=N/NC(=O)Cn2c3ccccc3c(=O)c3ccccc32)c(C)n1-c1ccccc1	95	9.9	-21	.	-10	101	.
66	CCSC1=NCCN1C(=O)c1ccc(S(=O)(=O)N(CC)CC)cc1	60	.	-15	0.83	-1	97	i
67	O=C(CSc1ccccc1)N1CCc2ccccc21	84	-4.0	-23	1.1	4	-344	i
68	CC(=O)Nc1ccn(Cc2c(F)cccc2Cl)n1	68	-2.8	-367	0.92	-4	108	i
69	COc1ccc2oc(=O)c(N3C(=O)c4ccccc4C3=O)cc2c1	.	.	.	1.1	.	105	i
70	COCCNC(=O)C(C(=O)c1ccc(F)cc1)n1cc(C)ccc1=O (configuration not stated)	94	.	-10	0.87	9	97	i
71	COc1cccc(Cn2nc(C(=O)O)c3ccccc3c2=O)c1	.	.	.	0.99	-6	96	i
72	C=CCc1cccc(CNc2nc3ccccc3n2CCN2CCOCC2)c1O	83	2.3	-169	0.98	3	97	i
73	Cc1ccc([N+](=O)[O-])cc1N/C=C1\CCc2ccccc2C1=O	88	-1.3	-4	0.85	1	73	i
74	Cc1c(C(=O)N2CCCC2)sc(NC(=O)c2ccccc2)c1C#N	103	-1.2	59	.	-8	90	.
75	O=C(Cn1cc(C(=O)c2ccco2)c2ccccc21)NC1CC1	76	.	36	1.2	-6	102	i
76	COc1ccc2c(CC(=O)N(C)CC3COc4ccccc4O3)coc2c1 (configuration not stated)	54	-1.4	-55	0.84	-15	95	i
77	Cc1ccc(NC(=O)c2sccc2-n2cccc2)c(C)c1	141	-1.5	-19	1.1	1	98	i
78	O=C(O)c1cc(-c2ccncc2)nc2ccc(S(=O)(=O)N3CCOCC3)cc12	.	-0.1	.	1.2	1	98	i
79	CCC(=O)N1N=C(c2cccc(NS(C)(=O)=O)c2)CC1c1cccs1 (configuration not stated)	.	-0.6	.	0.88	14	105	i
80	N#CC(C#N)=CNc1cccnc1	.	.	.	1.1	.	95	i
81	Brc1ccc(-c2nnc(Cc3ccccc3)o2)cc1	.	.	.	1.1	.	84	i
82	Cn1c(SCc2cccc(F)c2)nnc1-c1ccccn1	148	-0.8	-36	0.79	-8	99	i
83	C=CCn1sc(=N)c(C#N)c1N	140	-1.1	-15	0.72	3	99	i
84	O=C(NN=C1C2CC3CC(C2)CC1C3)c1ccncc1	93	-3.3	29	1.1	-3	99	i
85	CCCCOC(=O)c1c(C)oc2ccc(NS(=O)(=O)c3ccc4c5c(cccc35)C(=O)N4)cc12	110	-0.4	59	1	-3	107	i
86	CCn1nnc(NC(=O)c2cc(Cl)c(OC)c(Cl)c2)n1	111	-1.5	21	0.84	-8	100	i
87	Cc1sc2ncnc(Sc3nnnn3-c3ccccc3)c2c1C	.	-2.3	.	0.73	-2	101	i
88	O=C(CN1C(=O)CCC1=O)Nc1nc2c(F)cc(F)cc2s1	.	-1.2	.	1	-7	.	i
89	c1ccc2c3c(cc(N4CCOCC4)c2c1)OC1(N2CCOCC2)CCCCC1O3 (configuration not stated)	.	-0.9	.	0.9	5	97	i
90	Cc1ccc(C2NCCS2)cc1 (configuration not stated)	86	.	8	.	-2	98	.
91	COc1cccc(C(=O)Nc2cccc3c2ccc2cccn23)c1	.	.	.	0.98	-6	101	i
92	Cc1ccccc1Cn1ccc(NC(=O)c2cnn3c2NC(c2ccccc2)CC3C(F)(F)F)n1 (configuration not stated)	106	-3.1	-21	0.92	7	115	i
93	O=C1c2ccccc2NC2(CCCC2)N1NS(=O)(=O)c1ccccc1	.	.	.	0.99	-5	108	i
94	C=CCc1c(C)nc(C)nc1N/N=C/c1ccccc1	164	-1.0	0	0.84	0	103	i
